KCNQ2 pot: potentiators of rat KCNQ2 potassium channel; O88943; CHO-K1 KCNQ2, FluxOR thallium flux fluorescence; stronger effect = higher value; B-score at 10 µM; actives 0.54% (n = 310,000); AID 2239;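 active = fluorescence ratio B-score at least 3 SD of library B-scores, with initial fluorescence B-score within 3 SD, cut at about 5.3 in these data; same plate scores as AID 2156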;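 note: B-score of peak minus minimum over baseline fluorescence ratio after K+ and Tl+ stimulus; positive B-score means potentiation of KCNQ2 with more thallium influx and brighter signal; only the inactives scoring about 0 or higher are listed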
Target sequence (O88943 whole entry, looked up): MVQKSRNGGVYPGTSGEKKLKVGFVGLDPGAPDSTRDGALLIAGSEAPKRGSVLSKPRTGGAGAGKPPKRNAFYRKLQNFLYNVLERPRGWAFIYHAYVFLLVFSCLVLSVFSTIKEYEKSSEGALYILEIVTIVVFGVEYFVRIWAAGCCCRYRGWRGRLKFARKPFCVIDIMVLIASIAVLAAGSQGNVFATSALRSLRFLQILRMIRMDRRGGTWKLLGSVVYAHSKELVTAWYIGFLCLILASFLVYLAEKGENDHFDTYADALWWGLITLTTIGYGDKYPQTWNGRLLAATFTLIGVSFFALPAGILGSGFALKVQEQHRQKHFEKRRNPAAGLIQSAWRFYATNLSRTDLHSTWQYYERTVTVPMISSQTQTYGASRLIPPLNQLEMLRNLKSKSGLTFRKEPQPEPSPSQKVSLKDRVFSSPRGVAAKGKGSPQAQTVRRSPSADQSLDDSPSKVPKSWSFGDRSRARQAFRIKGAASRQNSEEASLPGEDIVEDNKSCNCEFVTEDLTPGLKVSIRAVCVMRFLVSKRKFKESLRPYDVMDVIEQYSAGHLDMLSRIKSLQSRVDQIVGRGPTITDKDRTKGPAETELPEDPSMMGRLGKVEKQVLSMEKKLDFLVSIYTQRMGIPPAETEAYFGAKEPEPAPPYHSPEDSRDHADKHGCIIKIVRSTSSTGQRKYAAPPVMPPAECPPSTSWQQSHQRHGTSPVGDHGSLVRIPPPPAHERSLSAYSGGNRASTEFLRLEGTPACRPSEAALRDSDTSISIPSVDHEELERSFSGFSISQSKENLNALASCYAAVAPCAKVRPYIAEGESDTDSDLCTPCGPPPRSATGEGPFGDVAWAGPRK
KCNQ2 pot baseline: further read-out of KCNQ2 pot, marked with its call; B-score; compound at 10 µM; measured here: initial fluorescence intensity artifact check;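 brightness before thallium and not channel activity; 0 = typical well and far values either way flag optical interference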
Active calls of the source: *. An excerpt, so the mix of outcomes need not match the whole.

No.	Structure	KCNQ2 pot baseline	KCNQ2 pot
1	CC1CC(Nc2ccccc2)c2ccccc2N1C(=O)c1ccncc1 (centres undefined)	1.4	0.74
2	COc1cc(C2C(C(=O)c3cc4ccccc4o3)=C(O)C(=O)N2c2cc(C)on2)cc(OC)c1OC (centres undefined)	2	1.7
3	CCCn1c(C)cs/c1=N\C(=S)Nc1ccccc1	-0.31	0.56
4	CCCCN(C(=O)C1CC1)C1CCS(=O)(=O)C1 (centres undefined)	-0.01	1.4
5	CC1CC(C)CN(c2ccc(S(=O)(=O)N3CCOCC3)cc2)C1 (centres undefined)	-1.1	0.1
6	NNC(=O)CC(=O)NC1(Cc2ccc(O)cc2)CCCCC1	-1.3	0.02
7	O=C(COc1ccc(Cl)cc1[N+](=O)[O-])N1CCCCC1	-1.9	1.2
8	CN(C)CCCO/N=C(\c1ccccc1)c1ccncc1	2.4	0.33
9	CCOC(=O)C(C)Sc1nnc(NC(=O)c2cccc([N+](=O)[O-])c2C)s1 (centres undefined)	-1.2	0.37
10	CN(C(=O)CCc1nnc(CCCCc2ccccc2)o1)C1CC(C)(C)NC(C)(C)C1	-0.79	1.3
11	CCCC(CCC)c1nnc(NC(=O)c2ccco2)s1	1.6	0.14
12	CC(Oc1ccccc1)C(=O)N1CCCc2ccccc21 (centres undefined)	-1.4	0.03
13	O=C(Nc1ccc2c(c1)OCO2)C1CC(c2ccccc2Cl)=NO1 (centres undefined)	0.05	1
14	CC(C)n1c(O)c(N=NC(=O)C2COc3ccccc3O2)c2ccccc21 (centres undefined)	0.67	2.2
15	Cc1ccc(Cl)c(OCC(=O)Nc2ccc3c(c2)OCCO3)c1	0.01	0.96
16	CC(C)CC(NC(=O)C(NC(=O)C1CCC(=O)N1C(=O)OCc1ccccc1)C(C)C)C(=O)N1CCCC1C(N)=O (centres undefined)	-0.03	0.36
17	COC(=O)C1=NN(c2ccccc2OC)C2C(=O)N(c3ccccc3OC)C(=O)C12 (centres undefined)	0.68	0.55
18	Cc1ccc(-n2c(C)nnc2SC(C)C(=O)N2CCCC2)cc1 (centres undefined)	0.79	0.07
19	COc1ccccc1-n1cnc2cc(NC(C)=O)ccc21	-0.13	0.52
20	Cc1c(C)[n+](=O)c2c(n1[O-])CCCCC2	0.65	0.67
21	COc1ccc(C2=NCN(c3ccc(C)cc3)C(=S)N2)cc1	-1	1.2
22	O=C(O)/C=C\C(=O)Nc1ccc(Oc2ccc(Br)cc2)cc1	-1.2	0.33
23	COc1ccc(CNC(=O)NC2CCCCC2)cc1	1.8	1.1
24	CCOc1ccc(C(=O)NCC(=O)OC(C)C(=O)NCc2ccco2)cc1OCC (centres undefined)	1.7	1.9
25	S=c1[nH]c(-c2ccccc2)cn1-c1ccccc1	-0.36	0.04
26	O=C(CC(C(=O)O)C1CCCO1)NCCc1ccc2c(c1)OCO2 (centres undefined)	-0.29	0.44
27	O=C(CCC(=O)Nc1ccccc1Cl)NNS(=O)(=O)c1ccc(Cl)cc1	-0.54	1.2
28	COc1ccc(CNC(=O)C2CCN(S(=O)(=O)c3ccc4c(c3)CC(C)N4C(C)=O)CC2)cc1 (centres undefined)	0.01	2.5
29	CCCOC(=O)/C(C)=N\NC(=O)c1ccco1	-0.9	0.77
30	Cc1ccccc1NC(=O)C1c2ccccc2Oc2ccccc21	0.81	0.87
31	Cc1cc(NC(=O)CCC(=O)N(CCc2ccccc2)C(C(=O)NC2CCCC2)c2ccco2)no1 (centres undefined)	-0.28	2.8
32	CCCC(=O)Nc1nnc(SCC(=O)Nc2ccc3c(c2)OCCO3)s1	0.13	0.32
33	CNC(=O)c1[nH]cnc1C(=O)Nc1ccc(F)cc1	-0.31	2
34	CCn1c(=O)c(-c2nc3ccccc3[nH]2)c(O)c2ccccc21	-0.47	0.71
35	COc1cc(NC(=O)CCc2nnc3ccc(N4CCN(C)CC4)nn23)cc(OC)c1	2.6	0.02
36	COc1cc(S(=O)(=O)n2cnc(C)c2)ccc1Cl	0.87	0.22
37	COc1ccc(C(=O)C[n+]2cccc(C(N)=O)c2)cc1	0.64	0.32
38	CCCCN(C)C(=O)c1c[nH]c2ccc(S(=O)(=O)N3CCOCC3)cc2c1=O	-0.73	0.46
39	COc1ccccc1N1CCN(C(=O)CSc2nc(-c3ccco3)cc(C(F)(F)F)n2)CC1	-1.4*	12*
40	CC1CCC(C(=O)NNC(=O)c2cc(-c3ccco3)[nH]n2)CC1 (centres undefined)	0.42	0.33

Structures from the list above containing two or more sulfur atoms, in the order listed:
No.	Structure	KCNQ2 pot baseline	KCNQ2 pot
3	CCCn1c(C)cs/c1=N\C(=S)Nc1ccccc1	-0.31	0.56
9	CCOC(=O)C(C)Sc1nnc(NC(=O)c2cccc([N+](=O)[O-])c2C)s1 (centres undefined)	-1.2	0.37
32	CCCC(=O)Nc1nnc(SCC(=O)Nc2ccc3c(c2)OCCO3)s1	0.13	0.32

Next part
No.	Structure	KCNQ2 pot baseline	KCNQ2 pot
41	N=c1sccn1CC(=O)Nc1cccc2ccccc12	-1.2	0.85
42	O=C(CCCN1C(=O)c2ccccc2C1=O)NCc1ccc(F)cc1	-0.04	0.9
43	CCOC(=O)N1CCN(c2ccc(Cl)cc2)CC1	-1.1	1.6
44	CCOC(=O)NC(=O)/C(C#N)=C\Nc1ccc(Cl)cc1Cl	-0.82	0.08
45	NS(=O)(=O)c1ccc(CCNC(=O)CCCCCn2c(=S)[nH]c3ccc(Br)cc3c2=O)cc1	3.3	1.4
46	CCc1ccc(NC(=O)CSC2=C(C#N)C(c3ccc4c(c3)OCO4)CC(=O)N2)cc1 (centres undefined)	1.2	0.24
47	COC(=O)c1ccc2c(=O)n(Cc3ccc(C(=O)NC(C)C)cc3)c(=S)[nH]c2c1	1.6	0.66
48	CCC(=O)N(Cc1ccc(S(N)(=O)=O)cc1)C1CC(=O)N(c2ccccc2)C1=O (centres undefined)	0.01	0.33
49	O=C(O)/C(=C1\OC(=O)c2ccccc21)c1ccccc1	-0.25	0.42
50	CC(=O)Nc1sc2c(c1C#N)CCN(Cc1ccccc1)C2	-1.6	1.4
51	O=C(Nc1nc2ccccc2s1)c1cc(-c2ccco2)nc2ccccc12	-0.18	0.86
52	COc1ccc(OCCCC(=O)NC(C)c2ccccc2)cc1 (centres undefined)	0.02	1.6
53	Cc1cc(-c2nnc(SCC(=O)Nc3ccc(C)c(C)c3)n2N)n[nH]1	1.3	0.3
54	CCOc1ccc(C(C(=O)NCC2CCCO2)N(Cc2cccc(OC)c2)C(=O)c2snc(C(N)=O)c2N)cc1 (centres undefined)	1.7	1.3
55	CC(=O)Nc1cccc(NC(=O)CSc2nc3c(c(=O)n(C)c(=O)n3C)n2C)c1	2.1	0.57
56	O=C1CCCN1c1nccs1	0.93	0.51
57	Cc1c(Cl)cccc1N(CC(=O)O)S(C)(=O)=O	1.3	0.04
58	COc1cc(OC)cc(C(=O)Nn2cc(C(=O)N3CCN(C)CC3)c3ccccc3c2=O)c1	0.23	0.49
59	Cc1c(N2C(=O)C3C4C=CC(C5CC45)C3C2=O)c(=O)n(-c2ccccc2)n1C (centres undefined)	2.1	0.05
60	O=[N+]([O-])c1ccc(SCc2ccco2)cc1N1CCOCC1	0.74	0.6

Sorted by the number under KCNQ2 pot (largest number first): five from the list above
No.	Structure	KCNQ2 pot baseline	KCNQ2 pot
27	O=C(CCC(=O)Nc1ccccc1Cl)NNS(=O)(=O)c1ccc(Cl)cc1	-0.54	1.2
51	O=C(Nc1nc2ccccc2s1)c1cc(-c2ccco2)nc2ccccc12	-0.18	0.86
49	O=C(O)/C(=C1\OC(=O)c2ccccc21)c1ccccc1	-0.25	0.42
53	Cc1cc(-c2nnc(SCC(=O)Nc3ccc(C)c(C)c3)n2N)n[nH]1	1.3	0.3
36	COc1cc(S(=O)(=O)n2cnc(C)c2)ccc1Cl	0.87	0.22

(list continues)
No.	Structure	KCNQ2 pot baseline	KCNQ2 pot
61	CCOc1ccc(S(=O)(=O)N2CCC(C(=O)NCCN3CCOCC3)CC2)cc1C	0.54	0.38
62	Cc1ccc(S(=O)(=O)N2CCCCC2)cc1NC(=O)CCOc1ccccc1	-0.82	0.09
63	Cc1ccc(S(=O)(=O)C2C(=O)N(C)C3(C)CC2c2ccccc2O3)cc1 (centres undefined)	-1.3	0.51
64	CCCC(=O)Nc1ccc2c(c1)C(=O)NC2=O	4.1	0.47
65	C=CCNCCOc1c(C)cc(C)cc1Cl	-1.7	1.7
66	CCC(C)(C)NC(=O)CN(Cc1cccs1)C(=O)C(=O)Nc1ccc2c(c1)OCCO2	-0.44	1.5
67	CCN(C(=O)CN1CCN(Cc2ccccc2)CC1)c1c(N)n(Cc2ccccc2)c(=O)[nH]c1=O	0.56	0.11
68	Cc1ccc(S(=O)(=O)Nc2cccc(C(=O)N3CCOCC3)c2)cc1	-2	0.17
69	CC(=O)Nc1ccc(S(=O)(=O)N2CCC(C(=O)N[C@@H](Cc3ccccc3)C(=O)O)CC2)cc1	0.24	0.77
70	CCN(CC(=O)NC1CCCC1)S(=O)(=O)c1ccc(Br)cc1	0.04	0.12
71	Cc1noc(C)c1S(=O)(=O)N1CCN(S(=O)(=O)c2ccccc2C#N)CC1	1.3	0.44
72	c1ccc(-c2nnsc2-c2nc3ccccc3[nH]2)cc1	-1.2	0.53
73	O=C(NCCS(=O)CCNC(=O)C(F)(F)F)C(F)(F)F	-0.18	1.5
74	O=C(NNc1cc(N2CCOCC2)nc(N2CCOCC2)n1)c1ccc([N+](=O)[O-])cc1	-1.2	0.77
75	O=C1CC(c2ccc(S(=O)(=O)NCc3ccncc3)cc2)CN1 (centres undefined)	-0.04	0.44
76	CCc1ccc(NC(=O)CC2S/C(=N/N=C3CCCCCC3)NC2=O)cc1 (centres undefined)	-0.8	0.61
77	CC(Cc1ccccc1)Nc1ncnc2c1ncn2C1OC(CO)C(O)C1O (centres undefined)	0	1.7
78	COc1cc(/C=N/NC(=O)c2cc(C3CC3)[nH]n2)ccc1O	0.2	0.99
79	O=c1c2ccccc2nc2n1C(CBr)CS2 (centres undefined)	0.6	0.71
80	Cc1ccc(S(=O)(=O)NC2=NCN(CCc3ccccc3)CN2)cc1	0.22	0.84
81	Cc1cccc2c(=O)cc(C)n(CC(=O)N3CCCCC3)c12	-0.42	2.6
82	O=C(CN1C(=O)C2C3CC(C(Br)C3Br)C2C1=O)OCC(=O)c1cccc([N+](=O)[O-])c1 (centres undefined)	0.17	0.26
83	CC(=O)NC1=NN(C(C)=O)C(c2cccs2)S1 (centres undefined)	-0.09	0.18
84	CCOc1ccc(CNC(=O)C2CCCN(S(=O)(=O)N3CC(C)CC(C)C3)C2)cc1OC (centres undefined)	-0.21	1.1
85	CCCNC(=O)c1c[nH]c2ccc(S(=O)(=O)N(C)c3ccc(OCC)cc3)cc2c1=O	-0.05	0.83
86	CCC(C)NC(=O)c1nc2c(nnn2Cc2ccccc2Cl)c(=O)[nH]1 (centres undefined)	-0.46	0.58
87	CCOc1ccc2c(c1)c1nc3ccccc3nc1n2C	-0.46	0.3
88	CCCN(CCC)CCCNC(=O)CC1Nc2ccccc2NC1=O (centres undefined)	-2	2
89	CCOc1ccc(N=Nc2c(=O)[nH]n3c(=O)cc(C)[nH]c23)cc1	-1.4	1.7
90	CC(C)CC(=O)Nc1nnn(C)n1	-0.05	0.98
91	CCOC(=O)c1sc2nc(C)nc(Nc3ccc(OC)c(OC)c3)c2c1C	-0.07	1
92	O=c1[nH]c(=S)[nH]c2sc3c(c12)CCCCCC3	3.7	1.6
93	COc1cccc(S(=O)(=O)NCc2ccc(C(=O)N3CCN(C)CC3)cc2)c1	-1.3	0.95
94	CCN(CC)C(=O)CSc1nc2c(c(-c3cccnc3)c1C#N)CCCC2	0.92	0.88
95	CCOc1ccc(N(CC)S(=O)(=O)c2ccc3c(c2)oc(=O)n3C)cc1	-0.01	0.92
96	O=C(NC1CCCc2ccccc21)C1CCN(S(=O)(=O)c2cccc3nonc23)CC1 (centres undefined)	1.3	0.05
97	Cc1cccc(OCC(=O)NNC(=O)Nc2cccc(Cl)c2)c1C	0.17	0.22
98	Cc1nc2oc3c(NCc4ccccn4)ncnc3c2c2c1COC(C)(C)C2	-1.1	0.7
99	CCCOc1ccc(C(CC(=O)O)NC(=O)c2cccs2)cc1 (centres undefined)	1.9	0.5
100	CSc1ccc2[nH]c(=O)cc(C)c2c1	0.66	0.23
101	COc1cc(CNC2CCCCCC2)cc(OC)c1O	-0.25	2.2
102	Cc1cc(=O)oc2cc(NC(=O)Cc3ccccc3)ccc12	1.5	0.57
103	O=C(COc1ccc2ccccc2c1Br)N1CCCCC1	0.04*	13*
104	COc1ccc(N(CC(=O)NC(C)c2ccccc2)S(=O)(=O)c2c(C)noc2C)cc1 (centres undefined)	-0.36	0.21
105	CCOC(=O)N1CCN(CC(O)COCc2ccccc2)CC1 (centres undefined)	2.2	0.93
106	Cc1cnc(C(=O)Nc2ccccc2F)cn1	-1.5	1.1
107	CCOc1cc(C2C3=C(CC(C)(C)CC3=O)N(CCCOC)C3=C2C(=O)CC(C)(C)C3)ccc1OC	0.25	0.71
108	COc1ccc(Cl)cc1NS(=O)(=O)c1cccc(C(=O)NC2CCC(O)CC2)c1 (centres undefined)	-0.69	1
109	COC(=O)C(NC(=O)C(NC(=O)c1ccccc1)C(C)C)C(C)C (centres undefined)	-1.4	0.55
110	COc1ccc(NC(=O)NCc2ccco2)c(OC)c1	-0.06	0.59
111	NC(=O)CC(NC(=O)c1ccc(Br)cc1)c1ccc(N2CCCCCC2)c([N+](=O)[O-])c1 (centres undefined)	-0.43	0.95
112	CSc1ccccc1NC(=S)NCc1ccc(Cl)cc1	-1.2	0.49
113	CS(=O)(=O)N1CCN(C(=O)COc2ccc3ccccc3c2)CC1	0.78	0.65

From PubChem
